ALR H2O2 inh: inhibitors of human ALR sulfhydryl oxidase, primary screen, biochemical, H2O2 detection, HRP-luminol luminescence, single point | FAD-linked sulfhydryl oxidase ALR (Homo sapiens), P55789 | purified ALR, DTT oxidation | inhibition, % (no concentration beside the values) | 290,000 compounds, 3.8% hits;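 active = mean and each replicate at 75% or more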;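 note: stock transfer was 7.5 nL into about 7.5 µL; 0% = neutral wells and 100% = wells with inactivated enzyme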
Target sequence (P55789 whole entry, looked up): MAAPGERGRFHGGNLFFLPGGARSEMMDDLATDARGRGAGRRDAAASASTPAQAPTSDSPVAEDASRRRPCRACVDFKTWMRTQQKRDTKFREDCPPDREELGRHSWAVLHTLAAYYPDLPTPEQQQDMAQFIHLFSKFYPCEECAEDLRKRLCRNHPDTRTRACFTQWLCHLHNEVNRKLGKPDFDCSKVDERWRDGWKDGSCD
HNF4A DNA FP: change in binding of human HNF4A to DNA, primary screen, biochemical, fluorescence polarization, FITC-DNA; 1 h; AID 1224865, 2016; 360,000 compounds, 0.3% hits; activity change, % at 10 µM; in the data active = activity change above about 30%, passing the limit was not always enough;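 note: controls were the assay level and a saturating level of protein; the project sought stronger binding though the title names inhibitors; some compounds called inactive have numbers as strong as hits; positive values seem to mean higher polarization but the record does not say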
Target sequence (P41235 whole entry, looked up): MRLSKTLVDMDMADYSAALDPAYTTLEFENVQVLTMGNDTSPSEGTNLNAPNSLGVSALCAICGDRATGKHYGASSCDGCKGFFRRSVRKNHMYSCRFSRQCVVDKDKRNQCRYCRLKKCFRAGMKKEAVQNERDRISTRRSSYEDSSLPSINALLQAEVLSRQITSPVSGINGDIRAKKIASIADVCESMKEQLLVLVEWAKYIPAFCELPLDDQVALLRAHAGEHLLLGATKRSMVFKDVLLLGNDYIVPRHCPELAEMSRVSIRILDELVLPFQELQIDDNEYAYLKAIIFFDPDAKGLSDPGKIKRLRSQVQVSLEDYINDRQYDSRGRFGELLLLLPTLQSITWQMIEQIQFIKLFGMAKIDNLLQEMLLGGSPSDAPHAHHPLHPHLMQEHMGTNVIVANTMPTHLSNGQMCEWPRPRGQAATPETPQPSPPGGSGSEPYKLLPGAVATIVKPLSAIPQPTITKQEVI
B2AR ag: beta2AR agonists driving receptor internalization, primary screen, cell-based, FAP fluorogen, flow cytometry; Beta-2 adrenergic receptor (Homo sapiens), P07550; Am2.2-beta2AR cells; reference of the scale not given here; response, % (no concentration beside the values); 340,000 compounds, 0.43% hits;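 active = response above a set limit, near 3 SD of response in nonfluorescent compounds, cut at about 42% in these data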;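 note: stock transfer was 100 nL into about 11 µL; a reference agonist was the positive control; negative values mostly stem from fluorescent compounds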
Ecoli rRNA inh: reduced GFP signal of wild-type E. coli, primary screen, bacterial rRNA inhibitor project, GFP/RFP fluorescence, OD600, single point; GFP signal change (wild-type ribosome), % (concentration not given with the values); E. coli WT GFP vs humanized-ribosome RFP mutants, 24 h; stronger effect = lower value; DMSO median 0, no signal -100; 350,000 compounds, 1.6% hits;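 active = significant combined selectivity score with lowered wild-type GFP, culture density cut under 30%, mutant RFP and density less affected; inactive = any of these conditions unmet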; note: one replicate is shown; some compounds called inactive have numbers as strong as hits
E coli growth: E. coli growth inhibition, primary screen, OD600 | Escherichia coli growth, 23 h; stronger effect = lower value | OD600 absorbance (test concentration not listed) | 330,000 compounds, 0.21% hits | AID 1053175, 2014;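 active = OD600 absorbance below the run mean of sample wells minus 3.6 SD, in any replicate, cut at about 0.56 in these data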;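 note: stock transfer was 300 nL into about 60 µL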
UCH37 DUB inh: inhibitors of human UCH37 deubiquitinase, primary screen, biochemical, Ub-AMC cleavage, fluorescence | Ubiquitin carboxyl-terminal hydrolase isozyme L5 (Homo sapiens), Q9Y5K5 | purified proteasome/UCH37 | inhibition, % (test concentration not listed) | 330,000 compounds, 0.33% hits | AID 588478, 2011;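 active = mean of two replicates above 20%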;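 note: 0% = compound-free wells with enzyme and 100% = wells lacking proteasome; stock transfer was 100 nL into about 20 µL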
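Reagent: Ub-AMC substrate; assay system: Proteasome-associated human UCH37 deubiquitinase; controls: no-proteasome and no-compound wells; read-out: % inhibition of Ub-AMC cleavage fluorescence; timing: 30 min preincubation with enzyme, 25 min cleavage at room temperature; signal: AMC fluorescence from Ub-AMC cleavage, excitation 355 nm, emission 460 nm; buffer or medium: Tris-HCl pH 7.4 plus ovalbumin, ATP-MgCl2, DTT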
FGF22 binding: binders of human FGF22 protein, primary screen, FGF22 synaptogenesis inhibitor project, biophysical, thermal shift, single point | Fibroblast growth factor 22 (Homo sapiens), Q9HCT0 | recombinant FGF22 thermal shift, SYPRO orange fluorescence; percent of sucrose octasulfate shift, DMSO zero | calls only at 9.99 µM | 340,000 compounds, 1.5% hits;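 active = melting point raised past a set limit in the mean and every replicate; three in four hits are not shown here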
Target sequence (Q9HCT0 whole entry, looked up): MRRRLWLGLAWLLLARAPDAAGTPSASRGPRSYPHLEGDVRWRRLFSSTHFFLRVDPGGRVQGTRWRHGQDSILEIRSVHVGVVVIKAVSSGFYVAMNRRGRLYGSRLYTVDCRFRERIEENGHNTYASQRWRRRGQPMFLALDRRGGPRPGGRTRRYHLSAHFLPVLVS
Ecoli rRNA inh OD600: second read-out of Ecoli rRNA inh, no call of its own (marks repeat the call); OD600 change, %; measured here: OD600 growth;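 optical density of the mix in the first replicate; 0 = DMSO median and -100 = no signal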
Ecoli rRNA inh RFP: also measured in Ecoli rRNA inh; calls as there; RFP signal change, %; measured here: RFP humanized mutant strains;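 first replicate; 0 = DMSO median and -100 = no signal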
The depositor's hits bear a star; i = inactive; x = not tested or not shown. Some of the compounds tested; rates above refer to the full screens.

Results follow in this order: ALR H2O2 inh | HNF4A DNA FP | B2AR ag | Ecoli rRNA inh | Ecoli rRNA inh OD600 | Ecoli rRNA inh RFP | E coli growth | UCH37 DUB inh | FGF22 binding
- O=C1c2ccccc2[C@@H]2C[C@H]3O[C@H]3CCN12
    x | 0.5 | -0.2 | 9.6 | 8.8 | 2.3 | 0.695 | 0.1 | i
- Cc1ccccc1OCC(=O)NCCC(=O)O
    -5.1 | -2.5 | -0.4 | x | x | x | 0.653 | 2.0 | x
- O=C(NCC1CCCO1)c1ccc(Cn2c(=S)[nH]c3ccccc3c2=O)cc1 (stereo not drawn)
    x | -0.1 | -8.2 | -6.9 | -21.3 | -8.2 | 0.671 | 1.9 | i
- CCOc1ncccc1C(=O)Nc1ccc(S(=O)(=O)Nc2nc(C)cc(C)n2)cc1
    x | -2.6 | 6.3 | 6.3 | -15.7 | 1.6 | 0.67 | 0.9 | i
- CCc1cc(OCCOCCN(C)C)ccc1Cl
    x | -1.3 | 14.8 | x | x | x | 0.682 | 3.0 | x
- O=C(N/N=C/c1cccc2ccccc12)C(=O)N1CCCC1
    2.8 | -2.3 | -4.0 | 1.2 | 3.8 | -2.4 | x | x | i
- COc1ccc(CCNS(=O)(=O)c2c(C)[nH]c(C)c2C(=O)N2CCCCC2)cc1OC
    -4.0 | -1.8 | -2.5 | 16.6 | 9.8 | 3.2 | 0.682 | 1.1 | i
- c1ccc(C2=Nc3c(ccc4ccccc34)C(c3ccncc3)=NN2)cc1
    -2.1 | 3.4 | -4.7 | x | x | x | 0.718 | 3.6 | i
- CCc1ccc(C(=O)NNc2ccc(Cl)cc2)cc1
    -11.6 | -34.6 | 9.3 | x | x | x | 0.688 | 4.0 | i
- c1cc2c3c(cccc3c1)NC1(CCCCC1)N2
    -5.3 | 44.2* | 8.5 | -2.6 | 15.2 | -9.1 | 0.624 | -238.2 | i
- CC(=O)NC(NC(=S)Nc1cccc(Br)c1)C(Cl)(Cl)Cl (stereo not drawn)
    6.0 | -1.8 | 13.7 | -16.5 | -11.6 | -3.6 | 0.631 | 4.5 | i
- CC(=O)c1nn(-c2ccccc2)cc1C(=O)c1ccc(C)cc1
    -2.2 | -1.4 | -1.0 | 9.4 | 0.9 | 1.0 | 0.684 | 6.6 | i
- N#Cc1ccc(-c2nc3ccc(Cl)cn3c2Cc2ccsc2)cc1
    x | -10.5 | x | -7.6 | 3.1 | 2.8 | x | x | i
- CC(C)OC(=O)CSc1nnc(-c2ccccn2)n1C
    -4.6 | 1.3 | 1.2 | x | x | x | 0.641 | 1.0 | x
- OCC[C@H]1C[C@@H](O)[C@H](O)[C@@]2(Cc3ccccc3CCO2)O1
    5.2 | 1.1 | -0.8 | -5.5 | -11.1 | -1.4 | x | -0.3 | i
- O=C(Nc1cccc(C(F)(F)F)c1)NC1CCCCC1
    -6.3 | 2.7 | -5.3 | x | x | x | 0.699 | -4.6 | x
- CC(C)(C)N=C1NN=C(c2cc3ccccc3o2)CS1
    -0.8 | 0.3 | -15.0 | x | x | x | 0.689 | 4.7 | x
- c1ccc(Cc2nc3ccccc3[nH]2)cc1
    -6.0 | 1.2 | 3.2 | x | x | x | 0.635 | 3.6 | i
- CCCCCC(=O)Nc1cc(S(=O)(=O)N2CCOCC2)ccc1N1CCCC1
    -4.2 | 6.3 | -7.3 | 1.5 | -6.8 | -2.8 | 0.73 | 0.2 | i
- COc1ccc(NC(=O)C(C)N2C(=O)C3CC=C(Cl)CC3C2=O)cc1 (stereo not drawn)
    -2.6 | 0.5 | 0.5 | -2.2 | 5.5 | 1.4 | 0.713 | 5.1 | i
- CC1(C)CC(=O)C2=C(C1)Nc1cc(C(=O)c3ccccc3)ccc1NC2c1ccccn1 (stereo not drawn)
    x | 3.4 | 14.6 | -1.8 | -13.3 | -11.6 | 0.692 | 9.8 | i
- CCOc1ccc(N(CC(=O)NC2CCCCC2)C(=O)CCCC(=O)Nc2ccccn2)cc1
    x | 2.1 | 2.3 | -2.8 | 4.5 | 2.7 | 0.674 | 1.2 | i
- COc1ccc(Nc2cc(=O)n(C3CCCCC3)c(=O)[nH]2)c(OC)c1
    9.1 | -4.4 | 0.9 | x | x | x | 0.729 | -4.4 | x
- O=S(=O)(Nc1ccc2ccccc2c1)c1ccccc1
    x | 0.2 | 2.4 | x | x | x | 0.655 | 7.1 | x
- Nc1nnnn1/N=C/c1cccc(OCc2ccccc2Cl)c1
    -3.1 | 3.5 | 1.9 | x | x | x | x | x | x
- COCOCCn1cc(CN2CCS(=O)(=O)N(Cc3ccc(-c4ccc(OC)nc4)cc3)C(C)C2=O)nn1 (stereo not drawn)
    x | 0.9 | x | 15.2 | 9.6 | 1.9 | x | x | i
- O=C(NN1C(=O)NC2(CCCCC2)C1=O)c1cc2ccccc2o1
    2.4 | 0.0 | -6.8 | 1.8 | 1.9 | -1.2 | 0.704 | 0.7 | i
- Cc1cccc(Nc2nnc(SC3CCOC3=O)s2)c1C (stereo not drawn)
    8.8 | -2.8 | 1.6 | -1.3 | 1.8 | 0.2 | 0.693 | 5.5 | i
- COc1ccc(CCCc2n[nH]c(=S)o2)c(C)c1
    60.0 | -1.0 | 7.2 | -10.2 | -0.2 | -1.6 | 0.692 | 4.1 | i
- CS(=O)(=O)N(CC(=O)N1CCc2ccccc2C1)Cc1ccccc1
    -1.2 | -3.1 | -7.4 | -4.7 | -1.9 | 2.1 | 0.66 | 1.6 | i
- Fc1ccc(CSc2ccc3nnc(-c4cccs4)n3n2)cc1
    -4.1 | 0.6 | -10.6 | 0.9 | 7.5 | 3.7 | 0.722 | -15.5 | i
- CCOc1ccc(C(=O)NCC(=O)Nc2ccncc2)cc1OCC
    0.8 | -4.1 | -7.2 | 1.1 | 4.5 | -0.9 | 0.681 | -1.6 | i
- CCOC(=O)N1CCN(C(=O)N2CCOCC2)CC1
    -14.9 | -1.4 | 6.6 | x | x | x | 0.73 | 0.4 | x
- O=C(NCCc1ccccc1)C1CCCN1C(=O)Nc1ccccc1 (stereo not drawn)
    0.6 | -5.6 | 0.5 | 5.3 | 10.4 | 2.8 | 0.705 | 2.6 | i
- COC(=O)Cc1nnc(SCC(=O)Nc2ccccc2)c2ccccc12
    97.7* | 1.6 | 4.8 | -5.9 | -11.6 | -1.7 | 0.694 | 2.3 | i
- CCOC(=O)c1c(NC(=O)COC(=O)Cn2c(C(F)(F)F)nc3ccccc32)sc(C)c1C
    2.7 | 1.6 | 5.1 | x | x | x | 0.771 | -11.6 | x
- CN(C(=O)C(C)(C)C)C1c2c(ccc3ccccc23)OCC1CO (stereo not drawn)
    -0.8 | 0.2 | -13.8 | -8.0 | -10.5 | 3.8 | 0.672 | 4.7 | i
- O=C(NCc1cccc(Cl)c1)c1cccnc1
    -1.7 | -0.6 | -2.2 | 7.1 | 4.9 | -6.1 | 0.69 | 5.3 | i
- O=S(=O)(Nc1cccnc1)c1ccccc1
    -2.1 | -0.9 | -2.3 | 1.1 | 2.5 | -3.4 | 0.677 | 1.2 | i
- CC(=O)c1ccc(Nc2ccc([N+](=O)[O-])c3nonc23)cc1
    x | 13.1 | 4.9 | -7.6 | 1.3 | -4.2 | 0.696 | 8.0 | i
- Cc1ccc(C(=O)NCCSCc2ccccc2)cc1[N+](=O)[O-]
    x | 0.5 | -7.5 | x | x | x | 0.665 | 1.7 | x
- CCCc1cc(=O)n2[nH]c(-c3ccc(Br)cc3)cc2n1
    -0.8 | -0.3 | 2.2 | x | x | x | 0.724 | 4.0 | x
- CCCCC[C@H](C)N1C[C@@H](COCc2ccccc2)Oc2cc(N3CCC[C@H]3COC)ccc2S1(=O)=O
    x | 1.2 | x | 3.3 | 8.6 | -1.5 | x | x | i
- Cc1cc(C(=O)CN2C(=O)NC3(CCCCC3)C2=O)c(C)n1Cc1ccc2c(c1)OCO2
    17.2 | 1.7 | -8.6 | x | x | x | 0.693 | 5.4 | x
- NNC(=O)c1ccc(-c2ccccc2F)cc1
    41.8 | 0.3 | 5.9 | x | x | x | 0.654 | -1.0 | i
- COc1nc(Oc2ccc(/C=N/O)cc2)nc(N(C)C)n1
    98.6* | 2.2 | -3.8 | -11.2 | -19.9 | 26.3 | x | x | i
- CCc1cccc(C)c1NC(=O)COC(=O)c1cc([N+](=O)[O-])ccc1N1CCOCC1
    -19.2 | -0.9 | -11.6 | 1.5 | 3.1 | 1.0 | 0.694 | 2.7 | i
- CCOc1ccc(NC(=O)CS(=O)CC(=O)NC2CCCc3ccccc32)cc1 (stereo not drawn)
    x | -0.1 | 5.8 | x | x | x | 0.761 | 2.8 | x
- Nc1cc2c(cc1Cl)-c1ccccc1C2=NO
    x | -0.1 | 18.9 | -55.4 | -73.0 | -21.2 | x | x | i
- CCC(=O)N1CCN=C1SCc1ccc(Cl)cc1
    98.1* | 0.2 | -26.6 | x | x | x | 0.7 | 2.2 | x
- O=C(CN1CCc2ccccc2C1)N1CCN(S(=O)(=O)c2ccccc2)CC1
    -12.1 | 0.2 | 7.1 | x | x | x | 0.691 | 4.2 | x
- CCCCNc1c(-c2cccc(Sc3ccc(OC)cc3)c2)nc2ccccn12
    1.1 | 1.7 | 45.0* | -29.7 | -26.0 | 13.5 | x | x | i
- O=C(CSc1ccccc1F)NCCCN1CCCC1=O
    -2.5 | -2.9 | 1.6 | 2.0 | 8.6 | 0.3 | 0.683 | -3.0 | i
- COCCN(C(=O)COC(=O)/C=C/c1ccc(C)o1)c1c(N)n(Cc2ccccc2)c(=O)[nH]c1=O
    -1.3 | 2.0 | 6.2 | 9.0 | 15.7 | 0.1 | 0.708 | 3.7 | i
- Cc1nn(C)cc1C1C2=C(CC(C)(C)CC2=O)OC2=C1C(=O)CC(C)(C)C2
    5.4 | -7.0 | 2.6 | x | x | x | 0.691 | -0.6 | x
- CN1CCN(c2nc(-c3ccc(Cl)c(Cl)c3)nc3ccccc23)CC1
    -10.7 | 0.4 | 4.3 | -0.5 | 4.7 | -0.1 | 0.628 | 2.7 | x
- CCOc1ccccc1CNS(=O)(=O)c1cnc[nH]1
    -1.2 | 2.3 | 4.0 | 9.9 | 6.7 | -1.3 | 0.69 | -2.3 | i
- Cc1cnc(NC(=O)C(C)N2CCN(C)CC2)s1 (stereo not drawn)
    -7.8 | 1.6 | -1.8 | 9.7 | 6.9 | 0.6 | 0.678 | -0.2 | i
- CC1=CC=CN2CC(O)CN=C12 (stereo not drawn)
    -1.0 | 1.5 | -2.1 | x | x | x | 0.754 | -13.5 | x
